MT1-MMP act inh: blockers of MT1-MMP proenzyme processing, primary screen, HT1080 RFP-PRO-GFP cells, GFP/RFP fluorescence; Matrix metalloproteinase-14 (Homo sapiens), P50281; GFP/RFP ratio fluorescence, overnight; percent of plate control window, DMSO zero; GFP/RFP ratio change, % at 20 µM; 0.061% of 360,000 active; AID 651647, 2012;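 active means GFP/RFP ratio change of at least 30% with cell ATP level not reduced by more than half and red fluorescence within 50% of control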; further: strong numbers were not always called active
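Test system: HT1080 RFP-PRO-GFP cells; Benchmarks: DMSO and RFP-L50D-GFP cell wells; Timing: cells overnight before dosing, compound overnight, 37 °C, 5% CO2; Compound: one 20 µM compound dose with 1% DMSO; Read-out: GFP/RFP fluorescence ratio.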
Env fusion inh: inhibitors of HIV-1 Env-driven cell-cell fusion, primary screen, HeLa-JRFL effector, CEM21 target cells, luciferase. 1.1% of 360,000 active. inhibition, % at 12.3 µM. AID 651610, 2012;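 active means mean replicate inhibition score of at least 50 and every replicate individually at or above 50; inconclusive means only one of the two criteria met; inactive means mean below 50 and not all replicates reaching 50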;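 further: 0% = plate neutral controls and 100% = maraviroc near 300 nM; one replicate is shown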
MT1-MMP act inh RFP: also measured in MT1-MMP act inh; calls as there; RFP signal change, %; measured here: RFP expression control read;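 0 = vehicle wells; hits needed this value within 50% of zero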
* marks the source's active call; other numbers are inactive results; ? = inconclusive. An excerpt, so the mix of outcomes need not match the whole.

SMILES	MT1-MMP act inh	MT1-MMP act inh RFP	Env fusion inh
COCCCN1C(=O)C(CC(=O)NCc2cccc3ccccc23)CC(C(=O)N2CCCCCC2)=C1C (stereo not given)	4	2	-12
CC1(c2nnnn2-c2ccc3c(c2)OCCO3)CCC(=O)N1CCCN1CCOCC1 (stereo not given)	3	7	24
COc1ccc(C2CCCCC2SCC(=O)O)cc1OC (stereo not given)	5	5	0
Cc1cc(OCCCN2CCC(C(O)(c3ccccc3)c3ccccc3)CC2)ccc1Br	-4	-4	0
O=C1/C(=C\c2ccc([N+](=O)[O-])cc2)CS(=O)(=O)C/C1=C/c1ccc([N+](=O)[O-])cc1	-19	-40	85*
COc1cc(C2c3cc4c(cc3OC(NNC(N)=O)C2C)OCO4)cc(OC)c1OC (stereo not given)	13	3	15
O=C(NCCNC(=O)c1ccc(Cl)cc1Cl)c1ccc(Cl)cc1Cl	10	3	11
CC(C)C[C@H]1CN(CCCC[C@H]2CNC(=O)C(=O)N2CCC2CCCCC2)C(=O)C(=O)N1CC1CCCCC1	5	-4	-133
COC(=O)[C@]12CCCCC=C1N(Cc1ccccc1)C(=O)[C@H](CC(=O)N1CCSCC1)C2	3	4	-5
COc1ccc(CN2C(=O)CN(S(C)(=O)=O)CC2(C)C(=O)Nc2c(C)cccc2C)cc1OC (stereo not given)	5	6	-1
O=S1(=O)CC(N2CCCC2)CN1Cc1cn(Cc2ccc(Cl)cc2)nn1 (stereo not given)	3	2	14
O=C1NC[C@@H](CCCCN2C[C@H](Cc3ccccc3)N(CCC3CCCCC3)C(=O)C2=O)N(CCc2ccccc2)C1=O	0	-2	1
CC(C)C[C@H]1CNC(=O)C(=O)N1C[C@H]1CCCN1C[C@H](Cc1ccc(O)cc1)N1C[C@H](CC(C)C)N(CC2CCCCCC2)C(=O)C1=O	-1	-2	-82
CN(C)CCN1CCN(C(c2cc3ccccc3o2)c2nnnn2C(C)(C)C)CC1 (stereo not given)	6	8	-7
CCCCNC(=O)c1nc(C2CCN(S(=O)(=O)c3ccc(OC(F)(F)F)cc3)CC2)oc1-c1ccccc1	-1	-7	13
Nc1ccc(N=Nc2ccc(O)cc2)c(N)n1	45	-26	-23
COc1ccc(C(CNC(=O)c2cccc(S(=O)(=O)N3CCCC(C)C3)c2)N(C)C)cc1 (stereo not given)	5	-3	-10
O=C1c2ccccc2C(c2nnnn2-c2ccc3c(c2)OCCO3)N1CCc1c[nH]c2ccccc12 (stereo not given)	1	2	?
Cc1ccc(C(=O)COC(=O)c2nc(Cl)ccc2Cl)cc1	-4	2	-7
Nc1[nH]c(C(=O)c2ccccc2)c(-c2ccc(Cl)cc2Cl)c1C(=O)c1ccc(Cl)c(Cl)c1	2	-4	37
COc1ccc(C(C(=O)Nc2ccc3c(c2)OCCO3)n2c(=O)c(-c3cc4ccccc4[nH]3)nc3ccccc32)cc1 (stereo not given)	-6	-6	2
N#Cc1ccc(C(C(=O)NC2CCCCC2)n2c(=O)c(-c3ccccc3)nc3ccccc32)cc1 (stereo not given)	-10	-10	19
CCOC(=O)[C@]12CCC=C1N(Cc1ccccc1)C(=O)[C@H](CC(=O)NCCCN1CCCC1=O)C2	5	2	6
NC(=NCc1ccccc1)NN=Cc1ccnc2ccccc12	4	-7	9
COc1ccccc1-c1noc2c1C(=O)NCC2	11	4	-81
Cc1ccc(CN2C(=O)CSCC2(C)C(=O)Nc2c(C)cccc2C)cc1 (stereo not given)	1	-5	-21
C/C=C(/CCC1NCCc2c1[nH]c1ccccc21)[Si](C)(C)C (stereo not given)	-37	-4	-4
COC(=O)[C@@]12C[C@@H](CC(=O)NCCCN3CCCC3=O)C(=O)N(Cc3cccc4ccccc34)C1=CCC(C)(C)C2	-8	-11	-42
O=C(Nc1ccc2c(c1)[nH]c(=O)c1ccccc12)C(F)(F)F	6	-1	2
Cc1cc2c(cc1C)-n1nnnc1C(N1CCN(c3ccccc3F)CC1)C(=O)N2 (stereo not given)	-1	-2	-41

5 compounds already listed, sorted by the number in Env fusion inh, ascending:
SMILES	MT1-MMP act inh	MT1-MMP act inh RFP	Env fusion inh
COC(=O)[C@@]12C[C@@H](CC(=O)NCCCN3CCCC3=O)C(=O)N(Cc3cccc4ccccc34)C1=CCC(C)(C)C2	-8	-11	-42
Cc1cc2c(cc1C)-n1nnnc1C(N1CCN(c3ccccc3F)CC1)C(=O)N2 (stereo not given)	-1	-2	-41
C/C=C(/CCC1NCCc2c1[nH]c1ccccc21)[Si](C)(C)C (stereo not given)	-37	-4	-4
COc1ccc(C(C(=O)Nc2ccc3c(c2)OCCO3)n2c(=O)c(-c3cc4ccccc4[nH]3)nc3ccccc32)cc1 (stereo not given)	-6	-6	2
NC(=NCc1ccccc1)NN=Cc1ccnc2ccccc12	4	-7	9

The list goes on:
SMILES	MT1-MMP act inh	MT1-MMP act inh RFP	Env fusion inh
Cc1cc(C)n2c(NC3CCCC3)c(-c3cccnc3)nc2n1	-2	5	1
O=C(NC1CCCC1)C(C1CC1)n1c(C2CCCC2)nc2ccccc21 (stereo not given)	0	5	-13
COc1cccc(C2C(C(=O)c3ccco3)=C(O)C(=O)N2CCCN2CCOCC2)c1OC (stereo not given)	-1	1	2
COC(=O)[C@]12CCCCC=C1N(Cc1ccc(Cl)cc1Cl)C(=O)[C@H](CC(=O)NCC1CCCCC1)C2	-9	-9	5
COc1ccc2nc(-c3ccccc3)cc(C(=O)OCC(=O)NC3CC3)c2c1	-2	3	-6
COC(=O)[C@@]1(Sc2ccc(C)cc2)CC(=O)N[C@@H]1c1ccc(C(F)(F)F)cc1	8	-1	-54
COC(=O)CCCn1cc(CN2CC(N(C)C)CS2(=O)=O)nn1 (stereo not given)	4	3	-7
CC(O)(CC(=O)CC(=O)c1ccccc1)c1ccccc1 (stereo not given)	-11	-1	-30
O=C(NCCCl)Nc1ncn[nH]1	-5	-3	-1
CC1(C(=O)NS(=O)(=O)c2ccc3ccccc3c2)CCN1C(=O)CC1CCCCC1 (stereo not given)	1	3	-8

Part of the list above, with two lines to a compound:
Under each structure: MT1-MMP act inh | MT1-MMP act inh RFP | Env fusion inh
- COC(=O)[C@@]1(Sc2ccc(C)cc2)CC(=O)N[C@@H]1c1ccc(C(F)(F)F)cc1
  8 | -1 | -54
- COC(=O)CCCn1cc(CN2CC(N(C)C)CS2(=O)=O)nn1 (stereo not given)
  4 | 3 | -7

Further structures:
SMILES	MT1-MMP act inh	MT1-MMP act inh RFP	Env fusion inh
O=[N+]([O-])c1ccc(S(=O)Cc2ccccc2)c([N+](=O)[O-])c1 (stereo not given)	2	-16	-165
CCOC(=O)[C@]12CCCC=C1N(Cc1ccccc1)C(=O)[C@H](CC(=O)N1CCOCC1)C2	5	8	-11
C/C(=N/Nc1ccc(C(=O)c2c(C)cc3ccccn23)cc1[N+](=O)[O-])c1ccc(O)cc1	25	-24	38
COC(=O)C[C@H]1C=C[C@H](NS(=O)(=O)c2cn(C)cn2)[C@@H](CO)O1	-1	5	15
CCCCOCCCNC(=O)C[C@@H]1C[C@@]2(C(=O)OCC)CCC=C2N(Cc2ccccc2)C1=O	2	0	18
FC(F)(F)c1nc2nccnc2[nH]1	9	5	14
COC(=O)[C@@]1(Sc2ccc(C)cc2)CC(=O)N(C(=O)/C=C/c2ccccc2)[C@@H]1c1ccccc1	-1	-4	-14
O=C(NCc1ccccn1)[C@@H]1CCCN1C(=O)[C@@H]1CCCN1	7	4	-105
COc1ccc(Cn2cc(CN3CC(N4CCSCC4)CS3(=O)=O)nn2)cc1 (stereo not given)	2	5	16
O=c1cc(C=NNc2ccccc2)[nH]c(=O)[nH]1	6	0	-186
O=C(c1ccccc1)c1coc(-c2ccccc2)c1	-3	-5	-190
CC(C)(C)NC(=O)C(c1ccc(C(F)(F)F)cc1)n1c(=O)c(-c2cc3ccccc3[nH]2)nc2ccccc21 (stereo not given)	-13	-13	31
CC1CNC(=S)N(c2ccccc2)C1=O (stereo not given)	0	4	-17
Cc1cccc(COC[C@H](CC(C)C)N2CCN(C(=O)c3ccc(C(C)(C)C)cc3)CCC2=O)c1	-13	-16	-3
CCCCNC(=O)C1c2ccccc2OCC(=O)N1CCCN1CCOCC1 (stereo not given)	6	7	-65
Cn1cnc([N+](=O)[O-])c1Sc1nc(N)nc2c1ncn2C1OC(CO)C(O)C1O (stereo not given)	13	0	42
O=C(COC(=O)c1ccc(Br)o1)Nc1ccc(Br)cc1	0	6	-8
COc1c(C=O)c2c(c(OC)c1OC)-c1ccc(OC)c(=O)cc1C(NC(C)=O)CC2 (stereo not given)	31	18	-45
O=S1(=O)CC(N2CC=CC2)CN1Cc1cn(Cc2ccccc2)nn1 (stereo not given)	2	5	-16
O=C1NC(=O)C2(CCCC2)N1	-3	-1	?

Single records, from the list above. Screens in order: MT1-MMP act inh | MT1-MMP act inh RFP | Env fusion inh
Cc1cccc(COC[C@H](CC(C)C)N2CCN(C(=O)c3ccc(C(C)(C)C)cc3)CCC2=O)c1 is listed with -13 | -16 | -3
O=C1NC(=O)C2(CCCC2)N1 is listed with -3 | -1 | ?
O=S1(=O)CC(N2CC=CC2)CN1Cc1cn(Cc2ccccc2)nn1 (stereo not given) is listed with 2 | 5 | -16

Additional records follow:
SMILES	MT1-MMP act inh	MT1-MMP act inh RFP	Env fusion inh
CCCCc1c(-c2ccccc2F)ncn1CCc1ccccc1OC	-8	-27	65*
Oc1ccc2ccc(Cl)cc2c1	4	5	-9
CCOC(=O)[C@]12CCC=C1N(CCC1=CCCCC1)C(=O)[C@H](CC(=O)NCc1cccs1)C2	4	4	-3
COc1cccc(Cn2c(C(C)n3c(C)nc4ccccc43)nc3ccccc32)c1 (stereo not given)	1	1	4
O=[N+]([O-])c1ccc(C=NN2CCCCCC2)cc1	4	0	-117
Cc1ccc(S(=O)(=O)N2CCC(=O)N([C@H](COCc3ccc(Cl)cc3Cl)Cc3ccccc3)CC2)cc1	-7	-15	-11
CN(CC(=O)Nc1ccc(F)cc1)C(=O)c1ccc(OCc2cn3ccccc3n2)cc1	2	0	-23
CCCNC(=O)c1cc2c(c(-c3cccc(-c4ccccc4F)c3)n1)[C@H](CCO)N(C(=O)CC1CC1)C2	-2	-4	11
CNC(=S)NN=C(C)CCCC(C)=NNC(=S)NC	2	-1	-27
O=C(Nc1ccc2c(c1)OCCO2)C1c2ccccc2OCC(=O)N1Cc1ccccc1 (stereo not given)	-1	4	17
Cc1cccc(C)c1N1C(=O)c2ccccc2NC(=O)C1C(=O)NCCOc1ccccc1 (stereo not given)	2	1	-16
CN(NC(=O)C(=O)NCc1ccco1)C(=O)Nc1ccc(Cl)cc1	3	-1	-37
CCCCNC(=O)C(NC(=O)c1ccccc1)C(=O)c1ccccc1 (stereo not given)	-2	5	-4
COc1cc(OC)cc(C2=Cc3ccccc3C(CC(=O)c3ccco3)N2c2ccc(-c3cnc(OC)nc3)cc2)c1 (stereo not given)	1	0	-5
Cc1cc(C)cc(Cn2cc(CN3CC(N(C)C)CS3(=O)=O)nn2)c1 (stereo not given)	5	8	-5
C=CCOC(=O)Nc1nc(CCNC(=O)OC(C)(C)C)c(C(=O)OC)s1	0	1	5
CC1(C(=O)NCc2ccccc2)CN(S(C)(=O)=O)CC(=O)N1Cc1cccs1 (stereo not given)	4	5	0
CNc1cccnc1C=NNC(N)=S	-29	-2	81*
O=C(NCCN1CCC(n2c(=O)[nH]c3ccccc32)CC1)c1ccc(Cl)cc1	7	-3	-6
COc1ccc(C2=Nc3ccccc3N(C(=O)Cc3cc(OC)cc(OC)c3)C2C(=O)NC(C)(C)C)cc1 (stereo not given)	-3	-5	55*
CCOC(=O)[C@]12CCCC=C1N(Cc1ccc(Cl)cc1Cl)C(=O)[C@H](CC(=O)NCc1cccs1)C2	3	-5	-5
COc1ccccc1-c1nc2ccccc2n(CC(C)C)c1=O	-4	1	22
CCOC(=O)[C@]12CCC=C1N(CCC1=CCCCC1)C(=O)[C@H](CC(=O)N1CCCC1)C2	4	2	-2
CC(C)(C)n1nnnc1C(c1cc2ccccc2o1)N1CCCCC1 (stereo not given)	1	0	20
CCCc1nc2c(Cl)cc(C(F)(F)F)cn2c1Cc1ccc(OC)cc1C	-2	0	-22
O=C(CC(NC(=O)OCc1ccccc1)C(=O)OCc1ccccc1)OCc1ccccc1 (stereo not given)	-4	2	1
Cc1cccc(CN(C)C)c1CC(O)(c1ccccc1)c1ccccc1	0	-1	21
COc1ccc(NC(=O)C(c2ccc(OC)cc2)n2c(=O)c(-c3ccco3)nc3ccccc32)cc1 (stereo not given)	-3	1	-32
Nc1ncnc(N2CCOCC2)n1	1	-1	21
Cc1cccc(C)c1NC(=O)C1c2ccccc2OCC(=O)N1Cc1ccco1 (stereo not given)	4	8	0
CC1(c2nnnn2Cc2ccccc2)CCC(=O)N1CCCN1CCOCC1 (stereo not given)	4	4	11
CN(C)CCCN1c2ccc3ccccc3c2Sc2cccc(Cl)c21	-1	8	-7
CC(=NNC(=S)N1CC2CCC(CC2)C1)c1cnccn1	0	-14	-396
NC(=O)c1ccsc1NC(=O)COC(=O)[C@@H]1CCCN1C(=O)c1cccs1	-2	1	-5

Source: PubChem BioAssay
